Assay outcomes (PubChem)
KCNQ2 enhance: enhances the rat KCNQ2 potassium channel | AID 2239 | B-score at 10 µM | CHO-K1 KCNQ2, FluxOR thallium flux fluorescence; active compounds read high | 310,000 tested, 0.54% active | O88943;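 active = fluorescence ratio B-score at least 3 SD of library B-scores, with initial fluorescence B-score within 3 SD, cut at about 5.3 in these data; same plate scores as AID 2156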;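 also: B-score of peak minus minimum over baseline fluorescence ratio after K+ and Tl+ stimulus; positive B-score means potentiation of KCNQ2 with more thallium influx and brighter signal; only the inactives scoring about 0 or higher are listed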
Target sequence (O88943 whole entry, looked up): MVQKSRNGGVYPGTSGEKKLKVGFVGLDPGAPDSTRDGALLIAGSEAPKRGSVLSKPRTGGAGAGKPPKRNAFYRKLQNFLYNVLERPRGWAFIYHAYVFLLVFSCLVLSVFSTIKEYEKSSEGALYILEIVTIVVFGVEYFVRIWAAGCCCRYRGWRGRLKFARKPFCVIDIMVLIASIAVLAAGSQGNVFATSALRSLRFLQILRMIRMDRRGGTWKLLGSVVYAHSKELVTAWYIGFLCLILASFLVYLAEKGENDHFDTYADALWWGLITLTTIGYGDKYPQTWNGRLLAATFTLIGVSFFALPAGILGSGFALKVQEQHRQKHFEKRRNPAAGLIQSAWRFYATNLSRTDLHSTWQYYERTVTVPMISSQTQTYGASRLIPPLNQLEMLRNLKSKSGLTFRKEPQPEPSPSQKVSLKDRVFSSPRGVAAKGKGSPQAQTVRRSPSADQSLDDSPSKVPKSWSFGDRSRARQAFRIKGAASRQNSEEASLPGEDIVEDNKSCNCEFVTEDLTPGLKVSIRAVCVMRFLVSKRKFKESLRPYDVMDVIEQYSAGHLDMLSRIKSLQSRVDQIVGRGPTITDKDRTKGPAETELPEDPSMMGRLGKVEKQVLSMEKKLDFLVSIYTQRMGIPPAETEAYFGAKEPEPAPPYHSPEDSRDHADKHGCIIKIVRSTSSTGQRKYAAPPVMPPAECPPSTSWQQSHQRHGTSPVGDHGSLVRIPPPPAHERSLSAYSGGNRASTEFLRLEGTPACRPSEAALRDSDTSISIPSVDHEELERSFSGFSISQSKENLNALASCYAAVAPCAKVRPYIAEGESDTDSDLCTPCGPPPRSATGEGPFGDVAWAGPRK
KCNQ2 enhance baseline: second read-out of KCNQ2 enhance, no call of its own (marks repeat the call); B-score; compound at 10 µM; measured here: initial fluorescence intensity artifact check;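 brightness before thallium and not channel activity; 0 = typical well and far values either way flag optical interference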
Active calls of the source: *.

SMILES	KCNQ2 enhance	KCNQ2 enhance baseline
Cc1cc(/C=C2\SC(=S)N(C)C2=O)c(C)n1-c1ccc(O)cc1	0.19	1.2
Cc1ccccc1N(C(=O)c1snc(C(N)=O)c1N)C(C(=O)NCc1ccccc1)c1ccc(O)cc1 (stereo not given)	0.99	0.94
CCO/N=C(/C)c1c(O)cc(-c2ccccc2)n(-c2ccccc2)c1=O	0.08	-0.49
CN(CC(=O)NCCN1CCOCC1)S(=O)(=O)c1ccc(F)cc1	0.75	-0.44
CC(O)c1cc2c(cc1NC(=O)c1cnn3c1NC(c1ccco1)CC3C(F)(F)F)OCO2 (stereo not given)	0.59	-0.28
COc1ccc(CNC(=O)C(c2ccco2)N(C(=O)c2snc(C(N)=O)c2N)c2ccccc2OC)cc1 (stereo not given)	0.49	1.5
c1ccc(CSc2nnnn2-c2ccc3c(c2)OCCO3)nc1	0.13	2
CCC(=O)N1CCc2cc(S(=O)(=O)NC(Cc3ccccc3)C(=O)O)ccc21 (stereo not given)	1.4	2.4
CCCN(CCC)CCCNC(=O)c1cn(-c2ccc(OC)cc2)c(=O)c2ccccc12	0.6	0.45
COc1ccc(-c2cc3nc4n(c(=O)c3s2)CCCCC4)cc1	0.28	-0.15
O=C(CSc1nc2ccccc2c(=O)[nH]1)Nc1ccccc1C(F)(F)F	1.1	-1.3
O=C(O)CCC(=O)N1CCCC1	0.55	0.87
CCOC(=O)CNC(=O)CSc1nnc(-c2cccc(OC)c2)n1CC	0.12	-0.09
COc1ccc(CC(=O)NCc2n[nH]c(=S)n2-c2ccccc2)cc1	0.39	0.15
COCCNC(=O)CCC1CCN(Cc2cccc(-c3ccc(C)o3)c2)CC1	0.34	-0.29
CCCOC(=O)c1ccc(NC(=O)C(=O)NCCN(CC)CC)cc1	1.6	0.05
Nc1[nH]c(=S)nc2nc(-c3ccccc3)c(-c3ccccc3)nc12	0.75	-0.96
COc1ccc(CNC(=O)C(C)NCc2ccc(S(N)(=O)=O)cc2)cc1 (stereo not given)	0.93	-0.74
COCCOC(=O)c1c(C)nc(SCC(=O)Nc2ccc(OC)cc2)c(C#N)c1-c1ccco1	0.28	0.54
CNc1nc(N)nc(OC(C(F)(F)F)C(F)(F)F)n1	1.3	0.24
Cc1ccc(NC(=O)CSc2nnc([C@H](C)NC(=O)OC(C)(C)C)o2)c(C)c1	1.9	-0.19
CN(C)c1nc(N)nc(CSc2ccccn2)n1	1.2	-1.2
O=C(NCCc1ccc(Cl)cc1)Nc1ccc(F)cc1	1	1.7
O=c1[nH]cnc2c1N=C(c1cccc([N+](=O)[O-])c1)CC(c1ccccc1)N2 (stereo not given)	1.1	0.8
O=S(=O)(Nc1nc2ccccc2nc1NCc1ccco1)c1ccc(Cl)cc1	0.47	1.6
CN1CCN(S(=O)(=O)c2ccccc2)CC1	1.9	-0.83
Cc1nc(C(=O)N2CCc3c([nH]c4ccccc34)C2c2ccccn2)cs1 (stereo not given)	2.5	-0.32
Cc1ccc(C2N=C(N)Nc3nc(=O)c4ccccc4n32)cc1 (stereo not given)	0.81	-0.07
COc1ccc(S(=O)(=O)n2[nH]c(=O)c(CCO)c2C)c([N+](=O)[O-])c1	0.11	3
COc1cc(OC)c(N(C)S(=O)(=O)c2cccc(C(=O)OCC(=O)NCc3ccco3)c2)cc1Cl	1.3	-0.11
Cc1cc(N2CCN(c3cccc(C(F)(F)F)c3)CC2)n2nc(C)nc2n1	0.45	-0.54
CCN1CCN(C(CNS(=O)(=O)c2ccc(Cl)cc2)c2cccnc2)CC1 (stereo not given)	0.28	-0.88
Cc1ccc(NC(=O)OCc2cc(-c3ccccc3)on2)cc1	0.07	0.58
CNc1nnc(-c2cc3ccccc3oc2=O)s1	0.68	1.1
CC(C)c1ccccc1NC(=O)c1cnccn1	1.1	1.9
COc1cc(OC)c(NS(=O)(=O)c2cn(C)cn2)cc1Cl	0.69	0.02
O=c1ccc(C(F)(F)F)cn1Cc1cc(=O)n2cc(Br)ccc2n1	0.29	2.6
Cc1ccc(C)c(OCCN2CCOCC2)c1	0.27	-0.54
CCN(CC(=O)Nc1ccccc1C(F)(F)F)C(=O)C1CC(=O)N(Cc2ccccc2)C1 (stereo not given)	0.82	0
O=C(COc1ccccc1F)c1ccc(O)cc1O	1.1	0.05

Compounds shown so far containing a COOH group (2):
SMILES	KCNQ2 enhance	KCNQ2 enhance baseline
CCC(=O)N1CCc2cc(S(=O)(=O)NC(Cc3ccccc3)C(=O)O)ccc21 (stereo not given)	1.4	2.4
O=C(O)CCC(=O)N1CCCC1	0.55	0.87

Further compounds follow:
SMILES	KCNQ2 enhance	KCNQ2 enhance baseline
Cc1ccc(CNC(=O)COC(=O)c2cc3c(s2)CCC(C)C3)cc1 (stereo not given)	0.06	-1.1
O=C(CCN1CCN(c2ccc(F)cc2)CC1)Nc1ccccc1F	0.61	0.54
Cc1c(C(=O)O)cnc2c([N+](=O)[O-])cnn12	0.65	-1
CCOC(=O)c1nn(-c2ccc(F)cc2)c(C)c1C(C)=O	0.77	1.3
CCN1C(=O)c2ccc(C(=O)Nc3ccc4c(c3)OCO4)cc2C1=O	0.09	-0.92
Nc1c(C(=O)OCC2CCCO2)c2nc3ccccc3nc2n1-c1ccc2c(c1)OCCO2 (stereo not given)	0.6	-0.8
O=C(CSc1nnc(-c2c[nH]c3ccccc23)n1CC1CCCO1)Nc1ccc2c(c1)OCCO2 (stereo not given)	0.28	-0.02
O=C(O)C1CCN(Cc2cccnc2)CC1	0.92	1.6
Cc1ccsc1C(=O)N1CCN(S(=O)(=O)c2cccs2)CC1	1.2	0.95
O=c1[nH]c2ccccc2n1CCCOc1ccccc1	0.03	0.22
Cc1ccc(NC(=O)Cn2cnc3c(oc4nc5c(cc43)COC(C)(C)C5)c2=O)cc1	2.1	-0.74
Cc1ccc(NC(=O)N2CCC(=O)N2)cc1	0.48	0.11
Cc1nn(CC(=O)N2c3ccccc3NC(=O)C2(C)C)c(C)c1[N+](=O)[O-]	0.77	-0.37
CC(=O)c1cccc(NC(=O)C2=CC(c3ccco3)=NS(=O)(=O)N2C)c1	0.45	-1.9
Cc1ccc(N2C(=S)SC3CS(=O)(=O)CC32)cc1 (stereo not given)	0.5	-0.67
O=C(NCCC1=CCCCC1)c1ccc(-n2cncn2)c([N+](=O)[O-])c1	0.09	-1.1
COCCCNC(=O)/C(C#N)=C1\N=C(NC(=O)c2cccs2)c2ccccc21	0.75	-0.53
O=C(CSc1nc(-c2ccccc2)cs1)Nc1cccc([N+](=O)[O-])c1	1.2	2.5
Cc1ccsc1/C=N/NC(=O)c1nnn(-c2nonc2N)c1C(C)C	0.59	1
COc1ccccc1CC(=O)N1CCOCC1	0.82	-0.45

Looked up by compound from the list above:
SMILES	KCNQ2 enhance	KCNQ2 enhance baseline
O=c1[nH]c2ccccc2n1CCCOc1ccccc1	0.03	0.22
O=C(NCCC1=CCCCC1)c1ccc(-n2cncn2)c([N+](=O)[O-])c1	0.09	-1.1

Further structures.
SMILES	KCNQ2 enhance	KCNQ2 enhance baseline
Cn1c(Cc2ccccc2)nnc1SCCC(=O)Nc1ccccc1	1.1	0.21
O=C(CSc1nnc(CCCN2C(=O)c3cccc4cccc(c34)C2=O)n1-c1ccccc1)NCCCO	1.4	-0.04
CCOc1ccccc1-c1noc(CCC(=O)Nc2cccnc2)n1	0.96	0.43
O/N=C/c1ccc(OCc2ccccc2)c(Cl)c1	0.03	1.8
CC(=O)Nc1ccc(NC(=O)/C=C/c2ccccc2)cc1	0.48	-0.91
Cc1cc(Cl)cc2c(N=Nc3ccccc3C(=O)O)c(O)[nH]c12	3	0
COc1ccc(Br)cc1CN(C)C(=O)c1ccncc1	1.5	-0.53
CC(C)N1CCC(=NNC(=O)c2ccccc2[N+](=O)[O-])CC1	0.21	-1.5
CCc1ccc(CC2(O)CC(C)N(C)CC2C)cc1 (stereo not given)	2.9	-1.1
Cc1cc(C)c(C#N)c(SCC(=O)Nc2ccc(S(=O)(=O)Nc3ncccn3)cc2)n1	0.85	1.1
Cc1ccc(N2C(=O)CS/C2=N\C(=S)Nc2ccccc2)cc1	1.8	0.11
CCN(CC)S(=O)(=O)c1cccc(NC(=S)NC(=O)/C=C/c2ccc(S(=O)(=O)N3CCOCC3)cc2)c1	0.03	1.5
O=C(O)CCn1c(-c2ccccc2)cc2c1CCCC2=O	1.2	0.17
Cc1ccc(-c2nc(CS(=O)CC(=O)NCCN3CCCCC3C)c(C)o2)cc1 (stereo not given)	1.6	0.05
O=C(c1cccc(NC2=NC3CS(=O)(=O)CC3S2)c1)N1CCN(c2ccc(F)cc2)CC1 (stereo not given)	2	-0.76
CCC(=O)Nc1cc(C(C)(C)C)ccc1C(C)=O	0.47	-0.39
CC(C)COc1cccc(C(=O)NC2(C)CCS(=O)(=O)C2)c1 (stereo not given)	1.9	-1.5
CCCCN(CC)C(=O)CSc1nc2n[nH]c(C)c2c(=N)n1-c1cccc(C)c1	0.46	-0.69
Cc1nc2c3ccccc3nc(SCC(=O)c3ccc(Cl)cc3)n2n1	1.9	-1
O=C(Nc1cccc(Cl)c1Cl)C1CCCO1 (stereo not given)	0.01	0.8

Three compounds already listed, sorted by number of heavy atoms, lowest first.
SMILES	KCNQ2 enhance	KCNQ2 enhance baseline
CC(C)N1CCC(=NNC(=O)c2ccccc2[N+](=O)[O-])CC1	0.21	-1.5
Cc1cc(Cl)cc2c(N=Nc3ccccc3C(=O)O)c(O)[nH]c12	3	0
CCOc1ccccc1-c1noc(CCC(=O)Nc2cccnc2)n1	0.96	0.43

Next entries
SMILES	KCNQ2 enhance	KCNQ2 enhance baseline
O=C(O)CC(NC(=O)C1c2ccccc2Oc2ccccc21)c1ccc(OC2CCCC2)cc1 (stereo not given)	2.8	-2
COc1ccc(Cl)cc1S(=O)(=O)N1CCC(C(=O)NCc2ccccn2)CC1	1.3	0.63
CCc1cc2cc(C)ccc2nc1SCC(=O)NC1CCCC1	0.26	0.8
Cc1ccc(S(=O)(=O)N2CCCC(C(=O)NCCc3ccc4c(c3)OCO4)C2)cc1 (stereo not given)	1.5	-2.5
CCOCCCNC(=O)c1c(C)c(C(=O)OCC)n(C)c1C	0.06	-0.91
O=C1/C(=C/c2cccnc2)SC(=S)N1CCc1ccccc1	0.1	-1.3
COCCn1c(N)c(N(Cc2ccccc2)C(=O)c2ccc(C#N)cc2)c(=O)[nH]c1=O	0.03	-0.21
C/C=C\C=C/C(=O)Nc1cccc(C2=NOC3(C2)C[C@@H](C(N)=O)N(C(=O)[C@H]2CCC(=O)N2)C3)c1 (stereo not given in full)	0.36	-0.05
S=c1[nH]nc(-c2cc(-c3ccccn3)nc3ccccc23)o1	0.83	-0.24
CCC(C)NC(=O)CCc1nnc2ccc(N3CCC(C)CC3)nn12 (stereo not given)	0.84	-2.2
Cc1ccc(N2C(=O)CC(Nc3ccc(Cl)c(S(=O)(=O)N(C)C)c3)C2=O)c(C)c1 (stereo not given)	0.88	0.09
COc1ccc(C2Nc3ccccc3C(=O)N2NS(=O)(=O)c2ccccc2)cc1 (stereo not given)	0.18	0.02
COc1ccc(C2C(C#N)=C(N)N(N(C)C)C3=C2C(=O)CC(C)(C)C3)cc1 (stereo not given)	1.1	0.3
CCN(CC(=O)NC1CCS(=O)(=O)C1)C(=O)COc1ccccc1-c1ccccc1 (stereo not given)	0.02	-2.1
Nc1c(SCCC(=O)O)ccc2c1C(=O)c1ccccc1C2=O	0.96	0.1
CN(C)/C=C1/C=C(C=O)OC1=O	1	-0.26
C=C(C)CNC(=S)N/N=C/c1ccco1	1	0.01
COC(=O)Cn1nc(C)c2ccccc2c1=O	0.88	-0.49
Cc1cc(C)c(S(=O)(=O)n2nc(C)c(Br)c2C)c(C)c1	0.78	1.6
CCCCCc1nc2c(=O)n(C)c3ccccc3c2o1	4.3	0.87

Entries of single compounds, quoted from the list:
Profile of CCOCCCNC(=O)c1c(C)c(C(=O)OCC)n(C)c1C → KCNQ2 enhance: 0.06; KCNQ2 enhance baseline: -0.91
Profile of Cc1cc(C)c(S(=O)(=O)n2nc(C)c(Br)c2C)c(C)c1 → KCNQ2 enhance: 0.78; KCNQ2 enhance baseline: 1.6
Profile of O=C1/C(=C/c2cccnc2)SC(=S)N1CCc1ccccc1 → KCNQ2 enhance: 0.1; KCNQ2 enhance baseline: -1.3

The list goes on:
SMILES	KCNQ2 enhance	KCNQ2 enhance baseline
O=C(Nc1ccc(F)c(Cl)c1)c1ccc2c(=O)n3c(nc2c1)CCCCC3	1.6	0.34
COc1ccc(CNC(=O)C2CCN(S(=O)(=O)N3CCCCC3)CC2)cc1	0.31	1.5
Cc1ccc(S(=O)(=O)N(c2ccc(Br)cc2)C2C=CS(=O)(=O)C2)cc1 (stereo not given)	0.34	0.3
Cc1ccccc1C(=O)NC1CC2CCCC(C1)N2Cc1ccccc1 (stereo not given)	2	-0.95
O=c1cc(-c2ccc(O)cc2)oc2c([C@@H]3O[C@H](CO)[C@@H](O)[C@H](O)[C@H]3O)c(O)c([C@@H]3O[C@H](CO)[C@@H](O)[C@H](O)[C@H]3O)c(O)c12	1.3	-0.03
CN(C)C(=O)CS(=O)(=O)c1ccc(Cl)cc1	1.8	0.01
CCN1CCCC1CNC(=O)c1[nH]c2ccc(OC)cc2c1C (stereo not given)	0.52	-0.12
COc1ccc(CCC(=O)N2CCc3ccccc32)cc1	1.5	-1.4
Cc1ccc(C)c(OCCCCN2CCCCC2)c1	0.55	0.01
O=C(CN1C(=O)C(=O)N(C2CCCC2)C1=O)Nc1ccc(N2CCOCC2)cc1	0.16	0.52
Cc1ccc(SCC(=O)O/N=C(\N)c2cccnc2)cc1	1.3	-0.3
COc1ccccc1NS(=O)(=O)c1cccc(C(=O)N/N=C(\C)c2ccc3c(c2)OCCO3)c1	3.7	-0.24
CC(C(=O)Nc1ccc(F)c(F)c1F)N1CCCCCC1 (stereo not given)	0.09	-1.1
CC(C)(C)NC(=S)NNC(=O)c1ccccc1Cl	0.14	-2.2
O=c1cc(O)n(-c2ccccc2)c(=S)[nH]1	0.13	0.21

This is a subset, so the mix of outcomes need not match the whole.
